NPYLR7 ag – agonists of mosquito NPYLR7 receptor, primary screen, cell-based, Aedes aegypti, calcium fluorescence, mosquito biting behavior; HEK293T NPYLR7/Galpha15, GCaMP6s calcium fluorescence; activation, % at 10 µM; Aedes aegypti neuropeptide Y-like receptor 7 (NPYLR7); actives 0.15% (n = 270,000); in the data active means activation above about 40%;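 further: 0% = vehicle and 100% = reference agonist at the receptor; some compounds past the cut are filed as inactive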
NPYLR7 ag max-min – further read-out of NPYLR7 ag, marked with its call; activation, %; measured here: Max-Min RFU normalised activation; some inactives read as strong as hits;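 span of the calcium signal over five minutes; 0% = vehicle and 100% = native peptide agonist; compound fluorescence can raise it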
Active calls of the source: *; & = joins results of further samples. Not all compounds are listed; the hit share may differ from the screen's.

`COc1c2occc2c(O)c2c(=O)cc(C)oc12` gave NPYLR7 ag -1 and NPYLR7 ag max-min -1.
`CC1(Cc2cccc(F)c2)C(=O)Nc2c(Cl)cccc21` (stereo not drawn) gave NPYLR7 ag 1 and NPYLR7 ag max-min 1.
`O=C1C(=S(O)c2ccc(Cl)cc2)C(=O)c2cccc3cccc1c23` (stereo not drawn) gave NPYLR7 ag 2 and NPYLR7 ag max-min -1.
`CC(=O)c1sc(=Nc2ccc(C)cc2C)n(CCO)c1C` gave NPYLR7 ag -5 and NPYLR7 ag max-min -11.
O=S(=O)(c1c(Cl)cccc1Cl)N(Cc1ccccc1F)C1CC1 was read as NPYLR7 ag -2 and NPYLR7 ag max-min -3.
For CSC(C)CCN1CCc2cc(-c3ccc(N4CCOCC4)cc3)cnc21 (stereo not drawn) the results were NPYLR7 ag 28 and NPYLR7 ag max-min 20.
Screening CCOC(=O)C(C(=O)OCC)C(CC(=O)C1CC1)c1ccccc1 (stereo not drawn) returned NPYLR7 ag 1 and NPYLR7 ag max-min 1.
CC(=O)[C@]1(O)Cc2c(O)c3c(c(O)c2[C@@H](O[C@H]2C[C@H](N)[C@H](O)[C@H](C)O2)C1)C(=O)c1ccccc1C3=O was read as NPYLR7 ag 100* and NPYLR7 ag max-min 88*.
Screening Cc1cnc(NC(=O)CCNS(=O)(=O)c2c(C)c(C)c(C)c(C)c2C)s1 returned NPYLR7 ag -1 and NPYLR7 ag max-min 11.
For CCOC(=O)CC(=O)N1CCN(C(C)c2ccccc2)CC1 (stereo not drawn) the results were NPYLR7 ag -3 and NPYLR7 ag max-min 8.

Retrieved by structure from the list above (7):
O=S(=O)(c1c(Cl)cccc1Cl)N(Cc1ccccc1F)C1CC1 was read as NPYLR7 ag -2 and NPYLR7 ag max-min -3.
`O=C1C(=S(O)c2ccc(Cl)cc2)C(=O)c2cccc3cccc1c23` (stereo not drawn) gave NPYLR7 ag 2 and NPYLR7 ag max-min -1.
`COc1c2occc2c(O)c2c(=O)cc(C)oc12` gave NPYLR7 ag -1 and NPYLR7 ag max-min -1.
Screening CCOC(=O)C(C(=O)OCC)C(CC(=O)C1CC1)c1ccccc1 (stereo not drawn) returned NPYLR7 ag 1 and NPYLR7 ag max-min 1.
For CCOC(=O)CC(=O)N1CCN(C(C)c2ccccc2)CC1 (stereo not drawn) the results were NPYLR7 ag -3 and NPYLR7 ag max-min 8.
CC(=O)[C@]1(O)Cc2c(O)c3c(c(O)c2[C@@H](O[C@H]2C[C@H](N)[C@H](O)[C@H](C)O2)C1)C(=O)c1ccccc1C3=O was read as NPYLR7 ag 100* and NPYLR7 ag max-min 88*.
`CC1(Cc2cccc(F)c2)C(=O)Nc2c(Cl)cccc21` (stereo not drawn) gave NPYLR7 ag 1 and NPYLR7 ag max-min 1.

Next part
`Cc1noc(C)c1CSCC(=O)Nc1ccc2c(c1)CCC2` gave NPYLR7 ag 3 and NPYLR7 ag max-min 4.
`C=CCN(CC(=O)N1N=C(c2ccccc2)CC1c1ccc(F)cc1)C1CCCC1` (stereo not drawn) gave NPYLR7 ag -8 and NPYLR7 ag max-min 3.
For CCc1nc2n(n1)C(=O)C(C(c1ccc(Cl)cc1Cl)N1CCCC1)S2 (stereo not drawn) the results were NPYLR7 ag -1 and NPYLR7 ag max-min 1.
Screening Cc1ccc2[nH]c(CCC(=O)N3CCC4(CCCO4)CC3)nc2c1C returned NPYLR7 ag 7 and NPYLR7 ag max-min 5.
Screening CCOc1ccc(C(=O)Nc2cc(C)nn2-c2nc3c(c(=O)[nH]2)CCC3)cc1OCC returned NPYLR7 ag 8 and NPYLR7 ag max-min 2.
Screening CCOc1ccc(-c2ccc(OCCNC(=O)CSCc3ccccc3)nn2)cc1 returned NPYLR7 ag 1 and NPYLR7 ag max-min 0.
Screening COCCn1c(SCC(=O)NCc2ccccc2Cl)nc2c([nH]c3ccccc32)c1=O returned NPYLR7 ag -1 and NPYLR7 ag max-min 1.
Screening COc1ccc(S(=O)(=O)N(CC(=O)Nc2ccc(F)c(Cl)c2)c2ccc(C)cc2)cc1OC returned NPYLR7 ag -24 and NPYLR7 ag max-min -14.
`Cc1cc(C)c2c(c1)OC/C(=C\c1csnn1)C2=O` gave NPYLR7 ag -4 and NPYLR7 ag max-min -5.
`O=C(CCS(=O)(=O)c1ccc(F)cc1)N(Cc1ccccn1)c1nc2ccccc2s1` gave NPYLR7 ag -3 and NPYLR7 ag max-min -7.
Screening CCN(CC(=O)NC(C)C)C(=O)CSc1nnc(-c2cccs2)n1-c1ccccc1 returned NPYLR7 ag 3 and NPYLR7 ag max-min 11.
CN1CCN(S(=O)(=O)c2ccc(Sc3ccc4ccccc4c3)nc2)CC1 was read as NPYLR7 ag 0 and NPYLR7 ag max-min -3.
For O=C(c1cccc(F)c1)N(Cc1nccn1Cc1ccc(Cl)c(Cl)c1)CC1CC1 the results were NPYLR7 ag 18 and NPYLR7 ag max-min 28.
CC(C)N(CC(=O)N1c2ccccc2-n2cccc2C1c1cccc(Cl)c1)C(=O)c1ccc(C(F)(F)F)cc1 (stereo not drawn) was read as NPYLR7 ag -1 and NPYLR7 ag max-min 7.
`Cc1c(CN2CCN(CC3CCCCC3)C(CCO)C2)cnn1C` (stereo not drawn) gave NPYLR7 ag -5 and NPYLR7 ag max-min -8.
For COc1ccc(/C=C2\C=C(c3ccccc3)N(c3ccccc3)C2=O)cc1Br the results were NPYLR7 ag -1 and NPYLR7 ag max-min 6.
CC1=C(C(=O)OC2CCCC2)C(c2ccc(Cl)c(Cl)c2)NC(=O)N1C (stereo not drawn) was read as NPYLR7 ag 1 and NPYLR7 ag max-min -5.
For Cc1scc(C(=O)N2[C@@H]3CC[C@H]2CNC(=O)C3)c1-c1ccccc1 the results were NPYLR7 ag 8 and NPYLR7 ag max-min 7.
`Cc1ccc(-c2nnn(C(C)C(=O)N(CCC#N)c3ccccc3)n2)cc1` (stereo not drawn) gave NPYLR7 ag -1 and NPYLR7 ag max-min 20.
Screening CCn1ccnc1CC1COc2ccccc2O1 (stereo not drawn) returned NPYLR7 ag 3 and NPYLR7 ag max-min -24.
`Cc1c(C(=O)NCCc2ccccn2)cc(-c2ccc(Cl)cc2)n1-c1ccc(F)cc1` gave NPYLR7 ag -3 and NPYLR7 ag max-min 6.
`Cc1ccc(C(=O)N2CCN(C(C(=O)N3CCCCC3C)C3CCCC3)CC2)cc1[N+](=O)[O-]` (stereo not drawn) gave NPYLR7 ag 10 and NPYLR7 ag max-min 23.
Screening CCS(=O)(=O)NCCN1CCC(C(F)(F)F)(C(F)(F)F)C1 returned NPYLR7 ag -6 and NPYLR7 ag max-min -7.
Screening O=C(CSc1ncccn1)NC(=O)NC12CC3CC(CC(C3)C1)C2 returned NPYLR7 ag -2 and NPYLR7 ag max-min 0.
`CCc1[nH]c2ccc(CNC(=O)c3cn(C(C)C)cc(C(=O)OC)c3=O)cc2c1C` gave NPYLR7 ag 4 and NPYLR7 ag max-min -5.
Screening CC(C)(CNC(=O)CCc1ccco1)c1ccc(Br)cc1 returned NPYLR7 ag 3 and NPYLR7 ag max-min 4.
Cc1nn(C)cc1-c1ccnc(NCC(C)Oc2cccnc2)n1 (stereo not drawn) was read as NPYLR7 ag 6 and NPYLR7 ag max-min 4.
`C=CCn1c(SCC#N)nc2sc3c(c2c1=O)CCCCC3` gave NPYLR7 ag 11 and NPYLR7 ag max-min 10.
For O=C1c2ccccc2C(=O)N1CC1CC2C=CC1C2 (stereo not drawn) the results were NPYLR7 ag 3 and NPYLR7 ag max-min 0.
For CC1SC(=N)N(c2ncc(Cc3ccc(Cl)cc3)s2)C1=O (stereo not drawn) the results were NPYLR7 ag -3 and NPYLR7 ag max-min -3.
`c1ccc(-c2noc3nc(NC4CCc5ccccc54)ccc23)cc1` (stereo not drawn) gave NPYLR7 ag 6 and NPYLR7 ag max-min 5.
For Cc1nnc(CN(CCN2CCOCC2)c2ccccc2)o1 the results were NPYLR7 ag -1 and NPYLR7 ag max-min -1.
Screening COc1ccccc1C(=O)C1CCCN(C(=O)c2cccc(N3CCOCC3)c2)C1 (stereo not drawn) returned NPYLR7 ag 2&3 and NPYLR7 ag max-min -2&0.
Screening CC1CCN(Cc2csc(NC(=O)CNC(=O)c3ccc(F)cc3)n2)CC1 returned NPYLR7 ag 0 and NPYLR7 ag max-min 9.
`CC1=NNc2nc3c(c(=O)n(Cc4cc(C)ccc4C)c(=O)n3C)n2C1` gave NPYLR7 ag -5 and NPYLR7 ag max-min -6.
For COc1cc(Cl)c(C)cc1NCC(=O)N1CCc2ccccc2C1 the results were NPYLR7 ag 0 and NPYLR7 ag max-min -1.
CCOC(=O)N1CCN(C(c2ccc(C)cc2)C2Sc3nc(C)nn3C2=O)CC1 (stereo not drawn) was read as NPYLR7 ag 0 and NPYLR7 ag max-min -2.
`O=S(=O)(N1CCCC1)N1CCC(n2cc(CN3CCCC3)nn2)CC1` gave NPYLR7 ag 31 and NPYLR7 ag max-min 14.
`Cc1nc(CNC(=O)CCc2ccccc2O)cs1` gave NPYLR7 ag -2 and NPYLR7 ag max-min -4.
c1ccc(C(c2ccccc2)c2noc3c2CN(CCCn2cnnn2)CC3)cc1 was read as NPYLR7 ag -1 and NPYLR7 ag max-min -4.
For O=C(c1nnc2n1CCN(Cc1cc3ccccc3o1)C2)N1CCCCC1 the results were NPYLR7 ag 13 and NPYLR7 ag max-min 6.
`CCOc1ccc(OCCCCOc2ccc(F)cc2)cc1` gave NPYLR7 ag -6 and NPYLR7 ag max-min 7.
`S=c1[nH]nc(-c2ccc(Cn3cnc(Cl)c3Cl)o2)n1CCCN1CCOCC1` gave NPYLR7 ag -2 and NPYLR7 ag max-min -9.
Nc1ccc(-c2nc3cc(N)cc(Cl)c3o2)cc1 was read as NPYLR7 ag 118* and NPYLR7 ag max-min 121*.
Screening COC(=O)CCC/C=C1/SCC(NC(=O)c2ccccc2)C1O (stereo not drawn) returned NPYLR7 ag 10 and NPYLR7 ag max-min 9.
Screening CCc1nc2ccc(C(=O)Nc3ccc(OC)c(OC)c3)cn2c1N(C)C(=O)COc1ccccc1 returned NPYLR7 ag 0 and NPYLR7 ag max-min -5.
Screening Fc1ccc(CN(Cc2ccncc2)Cc2ccc(C(F)(F)F)nc2)cc1 returned NPYLR7 ag -6 and NPYLR7 ag max-min -8.
For Cc1cccc(C)c1-c1c(-c2ccccc2)ncn1CC(O)CO (stereo not drawn) the results were NPYLR7 ag -5 and NPYLR7 ag max-min -15.
`CCOC(=O)c1c(CN2CCN(C)CC2)n(-c2ccccc2)c2cc(Br)c(OC)cc12` gave NPYLR7 ag -5 and NPYLR7 ag max-min -8.
For CSCC(C)C(=O)Nc1ccc(F)cc1OCC(F)(F)F (stereo not drawn) the results were NPYLR7 ag -5 and NPYLR7 ag max-min -7.
`CCOC(=O)CCC(=O)N(NC(=O)C(O)(CC)CC)c1ccccc1` gave NPYLR7 ag 9 and NPYLR7 ag max-min 10.
`CC(C)NC(=O)c1cc(N)ccc1N1CCC(Cc2ccccc2)CC1` gave NPYLR7 ag 14 and NPYLR7 ag max-min 11.
Cc1sc2nc(CN3CCCC3)nc(-n3cnnc3C#N)c2c1C was read as NPYLR7 ag 7 and NPYLR7 ag max-min 3.
`COc1ccc(/C=C2\Oc3c(ccc4c3CN(CC3CCCO3)CO4)C2=O)cc1OC` (stereo not drawn) gave NPYLR7 ag 88* and NPYLR7 ag max-min 94*.
`CCOC(=O)Nc1cc(=O)c2ccccc2o1` gave NPYLR7 ag 5 and NPYLR7 ag max-min 4.
For Cc1cccc(Cn2c(=O)c(C(=O)NC3CC3)nn(-c3ccc(C)c(F)c3)c2=O)c1 the results were NPYLR7 ag 12 and NPYLR7 ag max-min 12.
For CC(NC(=O)CCN1CCCCCCC1)c1nc(-c2ccccn2)no1 (stereo not drawn) the results were NPYLR7 ag 7 and NPYLR7 ag max-min 6.
COc1ccc(-c2nc3c(n2O)CCc2c-3no[n+]2[O-])cc1OC was read as NPYLR7 ag -9 and NPYLR7 ag max-min -19.
NC(CCc1ccccc1)c1csc(Nc2nccc(C(F)(F)F)n2)n1 (stereo not drawn) was read as NPYLR7 ag -2 and NPYLR7 ag max-min -5.
Screening C=CCCOC(=O)N1C[C@@H](C(N)=O)[C@@H]2Oc3ccccc3[C@@H]21 returned NPYLR7 ag 3 and NPYLR7 ag max-min 12.
Screening Cc1ccc(-n2nnc3c(N4CCN(C(=O)CC5CCCCC5)CC4)ncnc32)cc1 returned NPYLR7 ag -2 and NPYLR7 ag max-min -10.
Screening CCN(C(C)c1ccc(C#N)cc1)S(=O)(=O)c1ccc(Cl)c(Cl)c1 (stereo not drawn) returned NPYLR7 ag 4 and NPYLR7 ag max-min 4.
`CCC(C)C(=O)N1CCN(c2cc(S(=O)(=O)N3CCCC(C)C3)ccc2OC)CC1` (stereo not drawn) gave NPYLR7 ag 1 and NPYLR7 ag max-min -2.
CC1=NN(CC=Cc2ccccc2)c2nc3c(c(=O)n(C)c(=O)n3C)n2C1C (stereo not drawn) was read as NPYLR7 ag -1 and NPYLR7 ag max-min -3.
CCn1c(C2CCN(c3cc(C)nc4ccccc34)CC2)nn(C)c1=O was read as NPYLR7 ag 22 and NPYLR7 ag max-min 8.
Cc1ccc(C2C3CN(C(C)C)CC=C3C(C#N)C(=N)C2(C#N)C#N)cc1 (stereo not drawn) was read as NPYLR7 ag 21 and NPYLR7 ag max-min 15.
Screening CCCc1cc(=O)[nH]c(-n2nc(C)cc2NC(=O)c2ccc(S(=O)(=O)N(C)C)cc2)n1 returned NPYLR7 ag 10 and NPYLR7 ag max-min 6.
CCc1nc(CCNC(=O)N2CCSC(CC)C2)cs1 (stereo not drawn) was read as NPYLR7 ag 9 and NPYLR7 ag max-min 3.
CCC(C(=O)N1CCn2c(nnc2C(=O)N2CCCCC2)C1)c1ccccc1 (stereo not drawn) was read as NPYLR7 ag 8 and NPYLR7 ag max-min 3.
For Cc1cc(Cl)cc2sc(N(Cc3ccncc3)C(=O)c3ccc(C#N)cc3)nc12 the results were NPYLR7 ag 4 and NPYLR7 ag max-min 5.

Compound activity: PubChem, Fisher Drug Discovery Resource Center
